Mtb growth: Confirmatory growth inhibition assay against Mycobacterium tuberculosis H37Rv, potency (AID 1949); most inactive calls were filed without a number and no value below 0 was filed; inhibition, % at 10 µg/mL, or IC50 in µg/mL where a hit was titrated; hit rate 1.6% among 100,000;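 active = confirmed in a dose series; inconclusive = about 50% or more but not retested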;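 note: bacteria grown 7 days with compound before Alamar blue readout; 0% = untreated bacteria and 100% = reference antibiotic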
* = called active by the depositor; i = inactive; ? = inconclusive.

SMILES,Mtb growth
CCOc1ccc(N2CC(C(=O)Nc3ccccc3C(=O)NCCc3ccccc3)CC2=O)cc1 (centres undefined),i
Cc1ccc(Cl)cc1N(CC(=O)Nc1cccc(C(F)(F)F)c1)S(C)(=O)=O,31.0%
Cc1ccc(N(CC(=O)Nc2ccccc2)S(=O)(=O)c2ccccc2)c(C)c1,3.6%
O=C(NC(=S)Nc1ccc(C(=O)O)c(Cl)c1)c1ccc(Cl)c(Cl)c1,i
O=C(COc1ccc(C(=S)N2CCN(c3ccccc3F)CC2)cc1)N1CCCC1,i
O=C(Nc1ccc(F)cc1F)c1ccccc1-c1ccccc1,i
COc1ccc(C2=CC(c3cccc(Cl)c3)n3nnnc3N2)cc1 (centres undefined),10.2%
O=C(O)CC1NCCc2ccccc21 (centres undefined),i
CCCc1cc(=O)[nH]c(SCc2ccc(C#N)cc2)n1,i
O=C(COc1ccc([N+](=O)[O-])cc1)Nc1sc2c(c1C(=O)NCc1ccco1)CCCC2,i
COc1ccc(NC(=O)c2ccc(Cn3cc(Cl)cn3)cc2)cc1,i
COc1ccc(C2CC(=O)C(C=NCC(C)C)=C(O)C2)cc1 (centres undefined),i

The listing continues.
SMILES,Mtb growth
CCOC(=O)NC1(C(F)(F)F)N=C(c2ccccc2)NC1=O (centres undefined),i
Cc1nn(Cc2ccc(F)cc2)c(C)c1NC(=S)NC1CCCC1,i
O=C(NNC(=S)Nc1ccc(Br)cc1)c1sc2cccc(F)c2c1Cl,0.1%
COc1ccc(C(=O)CC(c2ccccc2)S(=O)(=O)c2ccccc2)cc1 (centres undefined),i
CCOC(=O)c1ccc(NC(=O)CNC(=O)c2ccccc2)cc1,i
Cc1ccc(CC(=O)Nc2cccc([N+](=O)[O-])c2C)cc1,i
CCOc1c(CNc2ccc(N3CCCC3)cc2)cccc1OC,2.6%
COC(=O)C1=C(C)N(C)C(=O)NC1c1cccc(Oc2ccccc2)c1 (centres undefined),i
CCc1cc2c(NC(C(=O)O)C(C)CC)ncnc2s1 (centres undefined),i
COc1ccccc1NC(=S)N1CCN(C(=O)C2CCCO2)CC1 (centres undefined),i
COc1ccc(NC(=O)C(Cl)(Cl)Cl)c(OC)c1,i
Cc1cc(OCCN2CCCC2)ccc1C(C)C,1.2%

Going on with the list.
SMILES,Mtb growth
Cc1ccc(S(=O)(=O)Nc2cccc(-c3cn4ccsc4n3)c2)cc1,0.9%
CCOc1ccc(S(=O)(=O)N(C)C2CCCCC2)cc1,i
COC(=O)c1ccc2c(=O)n(C3CCCC3)c(=S)[nH]c2c1,5.2%
CCC(C)NC(=O)CC(c1ccccc1)c1cc(C)ccc1O (centres undefined),i
CCc1ccccc1NC(=O)c1c(NC(=O)c2ccco2)sc2c1CCC2,4.2%
COc1ccc(NS(=O)(=O)c2ccc(Br)s2)cc1Cl,i
Cc1ccc(S(=O)(=O)CCSc2nc(-c3cccs3)cc(C(F)(F)F)c2C#N)cc1,5.6%
Cc1cc(=O)n2nc(-c3ccccc3)sc2n1,i
COc1cc(NC(=S)NC(=O)CC23CC4CC(CC(C4)C2)C3)ccc1NC(=O)c1ccco1,i
O=C(c1cccc(F)c1)N1CCN(C(=O)c2cnn3cc(Br)cnc23)CC1,i
CCOc1ccccc1NC(=O)CN(c1ccc(CC)cc1)S(C)(=O)=O,i
NC(=O)C1CCN(C(=S)Nc2ccc(Nc3ccccc3)cc2)CC1,i

The listing continues.
SMILES,Mtb growth
Cc1ccc(C)c(S(=O)(=O)Nc2cccc(Cl)c2)c1,10.1%
O=C(CSc1nnc2c(n1)[nH]c1ccccc12)Nc1ccccc1[N+](=O)[O-],i
O=C(O)CCCNC(=O)/C(=C\c1ccc2c(c1)OCO2)NC(=O)c1ccc(Br)cc1,i
Cc1ccc(NC(=O)NC23CC4(C)CC(C)(CC(C)(C4)C2)C3)cc1,i
COc1ccccc1N1CCN(Cc2ccc(C#N)cc2Cl)CC1,i
CCCOc1ccc(C(=O)NC(=S)Nc2ccc(I)cn2)cc1,1.9%
Cc1ccc(C(C)C)cc1OCCOCCN1CCCC1,i
O=C(CN1CCOCC1)NNC(=S)Nc1ccccc1,i
O=C(COc1ccc(Br)cc1Cl)Nc1ccc(S(=O)(=O)N2CCCC2)cc1,i
CC(C)c1ccc(N(CC(=O)Nc2ccccc2C(=O)O)S(C)(=O)=O)cc1,i
Cc1nnc(NC(=O)CN2C(=O)c3ccccc3S2(=O)=O)s1,i
COc1ccc(NC(=S)Nc2ccc(C(N)=O)cc2)cc1,i

(listing goes on)
SMILES,Mtb growth
O=[n+]1cc(-c2cccc(C(F)(F)F)c2)n([O-])c2c1CCCC2,i
COc1ccc(CNC(=O)C2CCCN2CCc2ccccc2)cc1OC (centres undefined),4.8%
COc1ccc(S(=O)(=O)N(C(C)=O)c2ccc3oc(C)c(C(C)=O)c3c2)cc1,i
COC(=O)c1cc(NC(=O)CN2C(=O)c3cccc4cccc2c34)ccc1Cl,i
CCN(c1ccccc1)S(=O)(=O)c1ccc(NC(=O)c2ccccc2[N+](=O)[O-])cc1,2.5%
CS(=O)(=O)N(Cc1ccc(C(=O)Nc2cc(C(F)(F)F)ccc2Cl)cc1)c1ccccc1,i
CC(C)Oc1cccc(C(=O)Nc2ccc(NC(=O)c3cccc(Cl)c3)cc2)c1,1.8%
Cc1ccc(NC(=S)c2ccc(N(C)C)cc2)cc1,i
CC1CCCN(C(=O)c2ccccc2Br)C1 (centres undefined),i
Cc1nc(NC(=O)c2ccc(F)cc2)ccc1Br,25.5%
CC(Oc1ccc(F)cc1)C(=O)N1CCN(C)CC1 (centres undefined),i
Cc1ccsc1-c1nnc(NC(=O)CSc2ccc(Cl)cc2)s1,0.4%

The listing continues.
SMILES,Mtb growth
COc1ccc(S(=O)(=O)N2CCC(C(=O)N3CCN(c4ccccc4)CC3)CC2)cc1Cl,8.2%
COC(=O)c1ccc(NC(CC(=O)c2ccccc2)c2ccc(OC)cc2)cc1 (centres undefined),i
Oc1ccc(NCc2ccccc2OCc2ccccc2Cl)cc1,2.5%
Clc1ccc(CN2CCN(c3ncnc4sc5c(c34)CCCC5)CC2)cc1,i
COC(=O)C1=CN(C(C)C)C=C(C(=O)OC)C1c1ccccc1OC,i
CC1=C(C(=O)OCC2CCCO2)C(c2ccc(C)c(Br)c2)C2=C(CCCC2=O)N1 (centres undefined),i
CCOc1ccc(NC(=O)CSc2nc3sc(C)c(C)c3c(=O)n2-c2ccc(C)cc2)cc1,?
O=C(NC(=S)Nc1nc(-c2ccc3ccccc3c2)cs1)c1cc2ccccc2o1,i
COc1ccc(S(=O)(=O)N(CC(=O)Nc2c(C)cc(C)cc2C)c2ccccc2)cc1,i
O=C(Nc1ccc(Cl)cc1)c1cc(-c2ccccc2)on1,i
Cc1cc(OCC(=O)n2cnnc2N)ccc1Br,i
COc1ccccc1NC(=O)c1cccc(C)c1[N+](=O)[O-],i

(continued)
SMILES,Mtb growth
CCOC(=O)C1(CC)CC(C)(c2csc(Nc3ccccc3Cl)n2)OC1=O (centres undefined),0.5%
O=S1(=O)CCC(n2nnnc2-c2ccc(Cl)cc2)C1 (centres undefined),i
O=C(CSc1nc(C(F)(F)F)cc(=O)[nH]1)Nc1ccc(Cl)cc1,i
Cc1cc2nc(SCC(=O)NC3CC3)[nH]c2cc1C,i
COc1ccccc1N(CC(=O)Nc1cccc(Cl)c1Cl)S(=O)(=O)c1ccc(C)cc1,i
N#Cc1cccc(NC(=O)c2ccco2)c1,i
O=c1nc(N2CCOCC2)ccn1Cc1ccc(Br)cc1,i
O=C(OCC1CC2C=CC1C2)c1cc2ccccc2oc1=O (centres undefined),15.3%
CCOC(=O)C1=C(C)NC(SCC(=O)Nc2cccc(OC)c2)=C(C#N)C1c1ccccc1Cl (centres undefined),1.6%
NC(=O)CSc1nnc(COc2ccc(Br)cc2)n1-c1ccccc1,i
CC(=O)Nc1cc(C)c(C)cc1Br,29.5%
Cc1cc(C)cc(NC(=O)CC2NC3CCCCC3NC2=O)c1 (centres undefined),i

Next section
SMILES,Mtb growth
O=C(CSc1nnc(Cc2ccccc2)o1)Nc1nc(-c2ccc(Br)cc2)cs1,i
Nc1cc(=O)[nH]c(N2CCN(c3ccccc3)CC2)n1,i
COc1ccc(S(=O)(=O)Nc2ccc(Cc3ccncc3)cc2)cc1C,i
CCOC(=O)N1CCN(C(=O)c2ccc(N(Cc3ccc(Cl)cc3)S(C)(=O)=O)cc2)CC1,i
Cc1cc(C)nc(SCC(=O)Nc2ncc(Cc3cccc4ccccc34)s2)n1,0.7%
O=[N+]([O-])c1nn(Cc2ccccc2)cc1Cl,i
COc1ccc(-c2onc3ccc(I)cc23)cc1,i
COc1ccc(/C=C\c2[nH]c(=O)[nH]c(=O)c2[N+](=O)[O-])cc1OCc1c(F)cccc1Cl,2.8%
NCCNCCCCSc1ccc(Cl)cc1,i
COc1ccc(N2C(=O)CC(c3c(-c4ccccc4)cc4ccccn34)C2=O)cc1 (centres undefined),i
COc1ccccc1-n1c(C)cc(C=O)c1C,0.9%
Cc1cc(C)cc(NC(=O)C(=O)NCc2ccc(Cl)cc2)c1,i

More records:
SMILES,Mtb growth
Cc1cc(OCC(=O)N(C)c2ccccc2)ccc1Br,i
O=C(NS(=O)(=O)c1ccc2c(c1)C(=O)c1cc(S(=O)(=O)NC(=O)c3ccccc3)ccc1-2)c1ccccc1,i
Cc1cccc(C)c1OCc1nnc(SCC(=O)Nc2ccc(Cl)cc2Cl)o1,i
CCCCN1C(=O)NC(=O)/C(=C\c2ccc(OC)c(O)c2)C1=O,i
O=C(Nc1ccccc1)N1CCC(C(O)(c2ccccc2)c2ccccc2)CC1,1.8%
O=C(NC(=O)c1ccccn1)NC(c1ccccc1)c1ccccc1,21.3%
O=C(CN(Cc1ccc(Cl)cc1)S(=O)(=O)c1ccccc1)Nc1ccc2c(c1)OCO2,i
CCC(CC)c1nnc(NC(=O)c2ccc(Cl)cc2Cl)s1,i
Cc1ccc(CNC(=O)Cc2ccc(Br)cc2)cc1,i
CC(C)Cc1nnc(NC(=O)c2cccc(F)c2)s1,i
COc1ccc(-c2c(C)n([O-])c3c([n+]2=O)CCC3)c(OC)c1,i
CCOC(=O)C1CCN(S(=O)(=O)c2ccc(NC(=O)c3ccco3)cc2)CC1,0.7%

Next part.
SMILES,Mtb growth
O=C(CNCc1ccccc1)Nc1sc2c(c1C(=O)Nc1ccc(Br)cc1)CCC2,i
CC(=O)C(C)Oc1cc2oc(=O)c3c(c2cc1Cl)CCCC3 (centres undefined),i
COc1ccc(CCNC(=O)CSC2=C(C#N)C(c3cccc([N+](=O)[O-])c3)C3=C(CC(C)(C)CC3=O)N2)cc1 (centres undefined),6.2%
COc1ccc(NC(=O)CN(c2cc(Cl)ccc2Cl)S(C)(=O)=O)cc1OC,i
COC(=O)C1=C(C)N(Cc2ccc(C)cc2)C(=O)C1,i
O=C(COc1ccccc1)N1CCC(N2CCN(c3ccccc3F)CC2)CC1,i
COc1ccc(C(=O)NC(CC(=O)O)c2ccc(OC)cc2)cc1 (centres undefined),1.3%
Cn1c(=O)c2c(nc(OCc3cccnc3)n2Cc2c(F)cccc2Cl)n(C)c1=O,i
CCc1ccc(NC(=O)CCN2C(=O)c3ccccc3C2=O)cc1,i
CCOC(=O)c1sc(NCC2CCCO2)nc1C (centres undefined),3.4%
Cc1cc(C(=O)NCc2ccccc2Br)cs1,3.6%
O=C(CC1(O)C(=O)N(CCc2ccccc2)c2ccccc21)c1ccc(Br)s1 (centres undefined),i

(continued)
SMILES,Mtb growth
Cc1ccc(NC(=O)c2ccccc2C)cc1C,i
CCC(C)NC(=O)c1ccccc1NC(=O)c1ccc(C)cc1 (centres undefined),0.9%
Cc1sc2nc(SCC(=O)c3ccc(Cl)cc3)n(C)c(=O)c2c1C,i
Cc1ccc2cccc(OC(=O)c3ccccc3F)c2n1,i
COc1ccc(Cl)cc1NC(=O)CN(Cc1cccc(C)c1)S(=O)(=O)c1ccc(Cl)cc1,2.7%
N#CC1=C(N)Oc2n[nH]c(-c3cccs3)c2C1c1ccc(Br)s1 (centres undefined),i
Cc1ccccc1-n1cnc2cc(NS(=O)(=O)c3ccccc3)ccc21,i
Cc1c(NC(=S)NN(c2ccccc2)c2ccccc2)c(=O)n(-c2ccccc2)n1C,i
Nc1nnc(CCCN2C(=O)c3ccccc3C2=O)s1,0.7%
CCOC(=O)c1cccc(COC(=O)CNC(=O)C(c2ccccc2)c2ccccc2)c1,i
COc1ccc(OC(C)c2nc(-c3cccnc3)no2)cc1 (centres undefined),i
COc1cc([N+](=O)[O-])ccc1NC(=S)NCc1ccc(Cl)c(Cl)c1,i

Going on with the list:
SMILES,Mtb growth
COC(=O)c1ccc(C(=S)N2CCOCC2)cc1,2.6%
COc1ccc(-c2cc(C(F)(F)F)n3nc(C(=O)NCCCn4ccnc4)cc3n2)cc1OC,i
O=c1c2ccccc2nc(/C=C/c2cccnc2)n1-c1c(Cl)cccc1Cl,12.3%
CN1C(=O)c2ccc(NC(=O)c3cccc4ccccc34)cc2C1=O,i

Rewritten as labelled records: part of the list above.
COC(=O)c1ccc(C(=S)N2CCOCC2)cc1
- Mtb growth: 2.6%
COc1ccc(-c2cc(C(F)(F)F)n3nc(C(=O)NCCCn4ccnc4)cc3n2)cc1OC
- Mtb growth: i

A draw from above in order of SMILES length, lowest first:
SMILES,Mtb growth
COc1ccc(OC(C)c2nc(-c3cccnc3)no2)cc1 (centres undefined),i
COc1cc([N+](=O)[O-])ccc1NC(=S)NCc1ccc(Cl)c(Cl)c1,i
COc1ccc(-c2cc(C(F)(F)F)n3nc(C(=O)NCCCn4ccnc4)cc3n2)cc1OC,i

Source: PubChem BioAssay

Some of the compounds tested (hit frequency here may not be typical).
